Compound activity (PubChem)
Tgondii IFNg: T. gondii growth inhibition under IFN-gamma. 3.8% of 69,000 active. Toxoplasma gondii growth in IFN-gamma-treated host cells; stronger effect = lower value; reference of the scale not given here. AID 1259416. activity change, negative = inhibition, %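 (about 20 µM by stock and volumes)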;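 active = below -70%; inconclusive = fit judged invalid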;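 note: host cells are HeLa cells infected with Toxoplasma gondii; parasite growth read as luciferase light; one replicate is shown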
Numbers without * were called inactive; i = inactive; u = inconclusive.

no.	canonical_smiles	Tgondii IFNg
1	COc1ccc(NC(=O)Cc2cc(C)no2)c(NC(=O)C(C)C)c1	7.7
2	Cc1c(C(=O)NCCCN2CCOCC2)cc(C(C)(C)C)n1-c1ccccc1	-17.8
3	COC(=O)C[C@@H]1CC[C@@H]2[C@@H](COc3ccc(NC(=O)Nc4cccc(C#N)c4)cc3C(=O)N2C)O1	-0.6
4	Cc1ccc2cccc(OCCNC(=O)c3cn[nH]n3)c2n1	-22.4
5	COc1ccc(CCC(=O)NCCc2csc(-c3cccc(F)c3)n2)cc1	16.2
6	O=C(CCCCCCC(=O)Nc1cccnc1)NO	-84.4*
7	Cc1ccc(-c2coc(-c3ccc(NC(=O)CC(C)C)cc3)n2)c(C)c1	-14.8
8	O=C(Cn1cccnc1=O)Nc1cccc(-c2csnn2)c1	84.1
9	Cc1ccc(-c2cc(C(N)=O)ccn2)c(-n2nc(C)cc2C)c1	4.6
10	Cn1c(=O)n(C)c2cc(CCC(=O)N3CCc4cc(Cl)ccc43)ccc21	3.9
11	COc1ccc2c3c([nH]c2c1)[C@H](CO)N(C(=O)c1ccncc1)CC31CN(C)C1	17.7
12	CC1=C(C(=O)Nc2ccc(C)cc2C)C2(CCN(S(C)(=O)=O)CC2)OC1=O	6.6
13	CC(C)N1CCc2ncn(C(C)C)c2C1C(=O)Cc1ccccn1 (stereo unspecified)	-0.7
14	CCOc1ccc(-c2csc(-n3nc(C(F)(F)F)cc3-c3ccc(OCC)cc3)n2)cc1	-53.9
15	CN1C(=O)C2(CCOCC2)c2cc(Nc3ncc(F)cn3)ccc21	0.9
16	COC(C)(C)C(=O)N1CCC(CO)(CCCc2ccccc2)CC1	-47.3
17	Clc1cccc(-c2nnc(-c3nc(NCc4cccnc4)c4ccccc4n3)o2)c1	-47.8
18	CO[C@@H](CN(C)S(=O)(=O)c1ccc(F)cc1)[C@@H](C)CN(Cc1ccccc1Cl)[C@@H](C)CO	31.1
19	COc1ccc(/C=C/C(=O)c2cc(O)ccc2O)cc1	17.0
20	COc1ccc(NC(=O)C(=O)NCCc2csc(-c3ccc(Cl)cc3)n2)cc1	14.5

Laid out differently: results already given
1. COc1ccc(NC(=O)Cc2cc(C)no2)c(NC(=O)C(C)C)c1
  Tgondii IFNg: 7.7
10. Cn1c(=O)n(C)c2cc(CCC(=O)N3CCc4cc(Cl)ccc43)ccc21
  Tgondii IFNg: 3.9
6. O=C(CCCCCCC(=O)Nc1cccnc1)NO
  Tgondii IFNg: -84.4*
20. COc1ccc(NC(=O)C(=O)NCCc2csc(-c3ccc(Cl)cc3)n2)cc1
  Tgondii IFNg: 14.5

Continued.
no.	canonical_smiles	Tgondii IFNg
21	CN(C)S(=O)(=O)c1ccc(CCC(=O)NC2CC(C)(C)Oc3ccccc32)cc1 (stereo unspecified)	0.7
22	CCN(CC)CCN1CC[C@@H]2OCC[C@@]2(C(=O)N2CCOCC2)C1	-41.2
23	C[C@@H]1CN([C@H](C)CO)C(=O)CCCn2nncc2CO[C@H]1CN(C)C(=O)Nc1cccc(Oc2ccccn2)c1	-32.1
24	C[C@@H]1CCCCO[C@H](CN(C)S(=O)(=O)c2cn(C)cn2)[C@@H](C)CN([C@@H](C)CO)C(=O)c2cc(NC(=O)Nc3cccc4ccccc34)ccc2O1	i
25	O=C(Nc1ccc(-c2nc(-c3ccccc3)co2)cc1)c1cccs1	2.8
26	C[C@H](CO)N1C[C@H](C)[C@@H](CN(C)C(=O)Nc2ccc(C(F)(F)F)cc2)Oc2ccc(NS(=O)(=O)c3ccc(Cl)cc3)cc2CC1=O	-34.6
27	O=C1CN(S(=O)(=O)c2cccc(F)c2)C[C@@H]2[C@H](c3ccc(C4=CCCC4)cc3)[C@H](CO)N12	-0.5
28	O=C(c1ccc[nH]1)N1CC2(CCN(c3ncccn3)C2)C1	51.7
29	CCCS(=O)(=O)N1C[C@H](OCc2cccnc2)[C@@H]2OCCC[C@@H]21	3.3
30	Cc1cc(C)n2ncc(CN3CCCC3c3nc(-c4ccncc4)no3)c2n1 (stereo unspecified)	-3.2
31	Cc1nnnn1CCCN1CCCC1c1nc2ccc(F)cc2[nH]1 (stereo unspecified)	6.6
32	CCOCC1COCCC12CCN(C(=O)C1CC(F)(F)C1)CC2 (stereo unspecified)	60.0
33	CNC(=O)c1ccc2cc([C@]3(O)CCn4cncc43)ccc2c1	11.5
34	O=C(O)C[C@H]1C=C[C@H](NC(=O)Nc2cc(F)ccc2F)[C@H](CO)O1	31.9
35	CCOCCCNC(=O)c1nc(Nc2ccccc2)c2ccccc2n1	-3.4
36	COCCC(=O)N1CCC2(CCC(COCC3CC3)N2C)CC1 (stereo unspecified)	0.0
37	Cc1nc(-c2cc(C(=O)NCC3CCCO3)c3ccccn23)cn1C (stereo unspecified)	372.7
38	Cc1nc(-n2cnnc2)ccc1-c1ccnc2c1ccn2C	-97.0*
39	CCOc1ccc(-c2cc3c(=O)n(Cc4nc(-c5ccccc5OC)oc4C)ccn3n2)cc1Cl	160.9
40	CCCn1nccc1C(=O)N1CCNCC1C(=O)N1CCOCC1 (stereo unspecified)	24.3
41	COc1ccc(-n2c(=O)c(C(=O)Nc3ccc4c(c3)OCCO4)c(O)c3cccnc32)cc1	-4.0
42	CCOc1ccccc1C(=O)Nc1ccc(-c2nc(Cn3cc(C)cn3)c(C)o2)cc1	-45.3
43	O=C(CN1CCC(Oc2ccc(F)cc2)CC1)Nc1ccnn1C1CCCC1	-57.3
44	FCCN1CCC2(CC1)CC(Nc1ncccn1)c1ccccc1O2 (stereo unspecified)	9.8
45	CCOc1ccc(NC(=O)C(=O)NCCc2sc(-c3ccc(C)cc3)nc2C)cc1	21.0
46	CCN1c2cc(C)ccc2-n2cccc2C12CCN(C(=O)Nc1ccc(OC)cc1)CC2	34.4
47	COc1ccccc1C1CCCN1C(=O)CC1(c2ccccc2Cl)CC(=O)N(C2CCCC2)C1=O (stereo unspecified)	-32.8
48	CN1CCCCN2[C@H](CO)[C@H](c3ccc(-c4ccc(F)cc4)cc3)[C@@H]2C1	-13.3
49	CCOC(=O)c1nc(NC2CCN(Cc3ccccc3)CC2)c2ccccc2n1	61.7
50	COCCC(=O)N1CC[C@H](Oc2cccnc2)[C@@H](Cc2ccccc2)C1	-42.3
51	Cc1cccnc1CC(C)NC(=O)c1nc(C(C)C)cs1 (stereo unspecified)	52.4
52	CNC(=O)N1CCC2(COCc3c(C)nc(N(C)C)nc32)C1 (stereo unspecified)	-0.7
53	Cc1nnc(SCC(=O)N2CCC(O)(c3cccnc3F)CC2)s1	-1.6
54	O=C(c1ccc(F)cc1)N1CC(=O)N2[C@H](C1)[C@@H](c1ccc(C#CCC3CCCC3)cc1)[C@@H]2CO	-32.3
55	CSC1=NCCN1Cc1ccccc1	30.1
56	O=C(N/N=C/c1ccccc1O)c1ccccc1O	-83.4*
57	COc1cccc(C2CCN2S(=O)(=O)NCc2ccccc2)c1 (stereo unspecified)	-0.2
58	CCCc1nc(CN(CC)C(=O)c2cc(F)c(F)cc2Cl)no1	4.9
59	COc1ccc(-c2nc(CCNC(=O)c3ccccc3Br)cs2)cc1	i
60	C[C@H](CO)N1C[C@H](C)[C@H](CN(C)CC2CC2)Oc2ccc(NC(=O)CCC(F)(F)F)cc2CC1=O	62.9
61	O=c1[nH]cnc2nc[nH]c12	9.2
62	O=C(C[C@H]1CC[C@@H](NC(=O)C2CCOCC2)[C@@H](CO)O1)NCC1CCCCC1	-8.5
63	O=C(CCc1ccccc1)Nc1ccc(Cl)cn1	-54.3
64	CNC(=O)c1cc(=O)n(CC(=O)Nc2ccccc2OC)c2ccccc12	34.8
65	CC(C)NC(=O)N(C)C[C@@H]1Oc2ccc(NC(=O)Cc3ccccc3)cc2CC(=O)N([C@@H](C)CO)C[C@@H]1C	-27.7
66	COC[C@@H]1CCC[C@]12CN(S(=O)(=O)c1cccs1)CCO2	-49.1
67	COCc1cc(C)nc(SCC(=O)Nc2cccc3c2CCCC3)c1C#N	121.4
68	Cc1nc2cc(F)ccc2n1C1CCN(CC(=O)N(c2ccccc2)c2ccccc2)CC1	-20.0
69	Cc1c(C(=O)Nc2nc(-c3cnn(C)c3)cs2)sc2nc[nH]c(=O)c12	25.1
70	COc1ccc(CN2CCN(C(=O)c3nc4ccccc4s3)CC2=O)cc1	5.4
71	Cc1ccc(NC(=O)C(=O)NCCc2sc(-c3ccccc3)nc2C)cc1F	-16.7
72	Fc1ccc(F)c2c1CCN(Cc1cc3n(n1)CCCNC3)C2	-1.0
73	COc1cccc(Nc2nc(-c3ccncc3)nc3c2CN(C(=O)OC(C)(C)C)CC3)c1	-75.2*
74	Cc1cc(CN(C)CC2(O)CCCN(Cc3ccc(C(C)C)cc3)C2=O)no1 (stereo unspecified)	-2.2
75	O=C(NCc1ccccc1)c1c(O)c2cccnc2n(-c2ccccc2)c1=O	5.0
76	Cc1ccc(NC(=O)CN2C(=O)CCc3cc(S(=O)(=O)N4CCC(C)CC4)ccc32)cc1C	-99.2*
77	CC(C)(C)c1cc(CN2CCCC2c2ccccn2)[nH]n1 (stereo unspecified)	-65.7
78	O=C(c1ccc(C2CCNC2)cc1)N(Cc1ccccc1)CC1CCC1 (stereo unspecified)	-31.6
79	COc1cccc(-c2ccc3ccc(-n4ccc(C(=O)NCC5CC5)n4)n3c2)c1	-35.4
80	CC(C)Cc1cc(C(=O)NCCC2CN(C)CCO2)n[nH]1 (stereo unspecified)	10.6

Other results.
no.	canonical_smiles	Tgondii IFNg
81	CC(C)c1ccc(Nc2ncc(C(=O)OCc3ccco3)c(C(F)(F)F)n2)cc1	35.5
82	CC(C)NC(=O)N1CC2(C1)[C@H](c1ccccc1)[C@H](CO)N2Cc1cncnc1	46.1
83	O=C(c1ccco1)N1CCCC2(CC(Oc3cccnc3)CO2)C1 (stereo unspecified)	-67.4
84	COc1ccc2c(c1)NC1(CCN(C(=O)Nc3cccc(SC)c3)CC1)c1cccn1-2	435.2
85	CCCNC(=O)N1[C@H](C#N)[C@H](c2ccccc2-c2cccc(C)c2)[C@@H]1CO	-56.6
86	Cc1noc(C)c1C1CCCN1C(=O)Cc1cnc2c(C)cccn12 (stereo unspecified)	1.0
87	c1cncc(C2CN(c3cc(N4CCCCC4)ncn3)C2)c1	12.2
88	CCC(=O)N1[C@@H](CO)[C@@H](c2ccccc2)C12CN(C(=O)c1ccc3c(c1)OCO3)C2	-5.8
89	Cc1ccc(-c2nc(CN3CCN(C(=O)NC4CCCCC4)CC3)c(C)o2)cc1	-2.2
90	COCC(=O)N1CCC2(CC1)CC1(CCN(c3ncccn3)CC1)C(=O)N2C	5.0
91	CC(C)c1noc(-c2cc(=O)n(CC(=O)Nc3ccccc3)c3ccccc23)n1	u
92	COCC1CN(S(=O)(=O)Cc2ccccc2)Cc2c1cnn2C (stereo unspecified)	54.0
93	COc1cccc(C#Cc2ccc3c(c2)[C@H]2[C@H](CCN2C(=O)c2ccccc2F)[C@H](CO)N3)c1	3.6
94	O=C(Nc1ccc(C(=O)N2[C@@H]3CC[C@H]2CC(O)C3)cc1)C1CCC1 (stereo partly specified)	-11.6
95	C[C@@H]1CN([C@@H](C)CO)C(=O)c2ccccc2-c2ccccc2CO[C@H]1CN(C)C(=O)Nc1ccc(-c2ccccc2)cc1	-43.8
96	Cc1nc(CN(C)C(=O)CCn2nnc3ccccc32)no1	7.3
97	CCCCCCC#Cc1cncc(NC(=O)N2CCN(c3ccccc3)CC2)c1	-4.7
98	COCCN1C(=O)CCc2cc(NS(=O)(=O)c3ccc(C)cc3C)ccc21	-13.8
99	COc1ccc(NC(=O)N2CCC3(CC2)NC(=O)c2ccccc2N3C)c(C)c1	30.9
100	CCCN1C(=O)CCc2cc(NC(=O)c3ccc4c(c3)OCO4)ccc21	u
101	COc1ccc(-c2cn(CC[C@@H]3CC[C@@H](NC(=O)c4cnccn4)[C@@H](CO)O3)nn2)cc1	-18.9
102	C[C@H](CO)N1C[C@H](C)[C@@H](CN(C)S(=O)(=O)c2ccc([N+](=O)[O-])cc2)OCc2ccccc2-c2c(n(C)c3ccccc23)C1=O	-73.3*
103	COc1ccc(C(=O)Nc2ccc(NC(=O)C(C)C)cn2)cc1	12.8
104	COc1ccccc1NC(=O)N1C[C@@H](O)COC[C@@H]2O[C@H](CC(=O)N3CCC(Cc4ccccc4)CC3)CC[C@H]21	-36.8
105	Cn1ccc2c(-c3cccc(=O)[nH]3)ccnc21	32.6
106	O=C(c1cccnc1)N1CCC2OCCCC2(COCC2CC2)C1 (stereo unspecified)	-0.8
107	CC(C)(O)C#Cc1ccc([C@@H]2[C@H](CO)N3CCCCN(S(C)(=O)=O)C[C@@H]23)cc1	-15.5
108	CCn1nccc1C(=O)N1CCCC2(C1)Nc1cccnc1NC2=NCc1ccccc1 (stereo unspecified)	8.6
109	COc1ccccc1N1CCN(C(=O)c2cc3cccnc3n(Cc3ccc(F)cc3)c2=O)CC1	41.7
110	Cc1ccc(S(=O)(=O)N2CCC3(CC2)NCCN=C3NCc2ccccc2F)cc1C	16.6
111	Cc1nccc(-c2ccccc2)c1C(=O)N1C[C@H]2C[C@H](O)[C@H](O)C[C@H]2C1	5.8
112	CCCNC(=O)N1[C@H](C#N)[C@@H](c2ccc(-c3ccccc3F)cc2)[C@@H]1CO	5.1
113	CN(C)S(=O)(=O)N1C2CCC(C2)[C@@H]1COc1cccc(C(F)(F)F)c1 (stereo partly specified)	-24.2
114	CCOC(=O)CSc1nc(N)nc(C)c1Cl	-9.4
115	CN(C)C(=O)C1CC2CN(C(=O)Nc3ccccc3Cl)CC1O2 (stereo unspecified)	1.5
116	Cc1cnc2c(C(=O)NC(Cn3ccnc3)C(C)C)cnn2c1 (stereo unspecified)	6.3
117	C[C@H]1CN([C@@H](C)CO)C(=O)c2cc(-c3ccncc3)cnc2O[C@@H]1CN(C)C(=O)CN1CCOCC1	u
118	CN(C)CCN1CCc2ncc(CNS(C)(=O)=O)n2CC1	-2.8

Only part of the results is shown; rates above refer to the full screens.
